VACV E9 pol inh: vaccinia E9 polymerase processive synthesis inhibition; in vitro processive DNA synthesis, absorbance read-out; stronger effect = lower value; some inactives read as strong as hits; normalized absorbance, % (no concentration beside the values); actives 0.94% (n = 46,000);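 active = replicate mean up to 90% and picked by the depositor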;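 note: 100% = median of the test wells of a plate; 100 nL library stock went into each well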
An asterisk follows results filed as active.

SMILES | VACV E9 pol inh
Nc1nnc(SCC(=O)N2c3ccccc3Sc3ccc(C(F)(F)F)cc32)s1 | 100
c1ccc(-c2nsc(N3CCOCC3)n2)cc1 | 102
CCOc1ccccc1NC(=O)N1CCOc2ccc(Cl)cc21 | 102
Cc1nn(CO)c(C)c1Sc1ccc(Br)cc1 | 99
Cc1ccc(NN)cc1 | 65*
CN1CCN(C(c2ccccn2)c2cc(Cl)c3cccnc3c2O)CC1 (stereo unspecified) | 102
CSc1nc2cc(NC(=O)c3cccs3)ccc2s1 | 102
O=C(COc1ccc(Cl)cc1)NCCC12CC3CC(CC(C3)C1)C2 | 101
CCSc1nnc(Cn2c(=O)sc3ccccc32)n1-c1ccccc1 | 100
CC1CN(c2ncc(C(=O)OCC3CC3)c(C(F)(F)F)n2)CC(C)O1 (stereo unspecified) | 106
Nc1cc(C(=O)OCC(=O)NC2CCCCCC2)ccc1Cl | 103
CCOc1ccc(/C=C/C(=O)Sc2ccc(Cl)cc2)cc1 | 101
CC(=O)Nc1ccc(N2C(=O)CSC2c2ccccc2)cc1 (stereo unspecified) | 100
O=C1CC(c2ccccc2)CC(O)=C1C=NCCN1CCOCC1 (stereo unspecified) | 100
O=C(COC(=O)CCc1c[nH]c2ccccc12)Nc1ccccc1Cl | 100
CCc1ccc(NC(=O)Cn2c(=O)n(CCc3ccccc3)c(=O)c3c4c(sc32)CCCC4)cc1 | 97
Cn1c(-c2ccccc2)c[n+]2c1CCCCC2 | 106
NS(=O)(=O)c1ccc(Cl)c(Cl)c1 | 100
CN1CCN(C(=O)Cc2ccc(F)cc2)CC1 | 101
CCOC(=O)Cn1c2c(c(-c3ccccc3OC)cc1=O)CCCC2 | 96
Cc1ccc(C)c(SCC(=O)OCC(=O)N2C(C)CCCC2C)c1 (stereo unspecified) | 101
FC(F)(F)c1cccc(NC(=S)NCCNc2nccc(C(F)(F)F)n2)c1 | 105
CCc1cccc(CC)c1NC(=S)Nc1ccc(C)cc1 | 109
CC(C)c1ccc(C(CC(=O)O)NC(=O)C2CCCCC2)cc1 (stereo unspecified) | 120
CN1C(=O)/C(=C\c2ccc(-c3ccccc3)o2)SC1=S | 104
SMILES | VACV E9 pol inh
CC(=O)Nc1ccc(NC(=O)/C=C/c2ccccc2)cc1 | 100
CCOC(=O)N1CCC(NC(=O)C(Cc2ccccc2)NC(=O)c2ccco2)CC1 (stereo unspecified) | 93
N#C/C(C(=O)N1CCCCC1)=C1/C(=O)Nc2ccccc21 | 104
O=C(O)CCn1c(-c2ccccc2)cc2c1CCCC2=O | 96
Cc1ccc(-c2nc(CS(=O)CC(=O)NCCN3CCCCC3C)c(C)o2)cc1 (stereo unspecified) | 106
O=C(NCc1ccco1)c1cc(-c2cccs2)nc2ccccc12 | 103
COc1ccc(C(=O)N2CC(C)OC(C)C2)cc1 (stereo unspecified) | 101
Cc1cc(C)c2c(=O)[nH]n(C(C)C)c2n1 | 101
O=C(Cc1ccccc1)Nc1cccc(C(=O)OCC(=O)c2ccc(Cl)cc2)c1 | 101
CCCc1cc(C(=O)Cc2ccc3c(c2)OCO3)c(O)cc1O | 103
C=CCn1c(SCc2nc(N)nc(N3CCCCC3)n2)nnc1-c1cccnc1 | 101
N#CC(C#N)C1CCS(=O)(=O)C1 (stereo unspecified) | 89
CC(=O)Nn1cc(C(=O)O)c2ccccc2c1=O | 92
COc1cccc(C2C(C#N)=C(N)Oc3[nH]c(=O)[nH]c(=O)c32)c1 (stereo unspecified) | 83
CN(C)c1[nH]ncc1-c1ccccc1 | 109
N#C/C(=C\Nc1ccc(Cl)cc1)c1ccc(Cl)cc1 | 106
Cc1ccc(CNCc2ccc(Br)cc2)cc1 | 102
CCOC(=O)c1ccc(CNC(=O)c2ccc(S(=O)(=O)c3ccccc3)cc2)o1 | 96
O=C(CN1C(=O)/C(=C/c2ccccc2)SC1=S)Nc1ccccc1 | 90
CCN1CCN(CCCNC(=O)c2ccc3nc(/C=C(\O)c4ccc(OC)cc4)c(=O)[nH]c3c2)CC1 | 48*
COc1cc2c(cc1OC)C(c1ccccc1)N(C(=O)c1oc3ccccc3c1C)CC2 (stereo unspecified) | 80
COc1ccc(C(=O)NCCCc2nc3ccccc3n2C)cc1OC | 99
CCN(CC)C(=O)Oc1cc(C(F)(F)F)nc(-c2ccc(Cl)cc2)n1 | 81
Cc1ccc(-c2nc(Cn3cc(C=C4C(=O)N(C)C(=O)N(C)C4=O)c4ccccc43)no2)cc1 | 100
CC1=C(C(=O)OCc2ccccc2)C(c2ccc[nH]2)C(C#N)=C(S)S1 (stereo unspecified) | 100
SMILES | VACV E9 pol inh
COc1ccccc1N1CCN(S(=O)(=O)c2ccc3c4c(cccc24)C(=O)N3)CC1 | 100
Cc1cc(=O)oc2cc(NC(=O)CC(CC(=O)O)c3ccccc3)ccc12 (stereo unspecified) | 104
CCn1c(NN)nc2ccccc21 | 98
Cc1ccc(-c2csc(NC(=O)c3nc4ccccc4s3)n2)o1 | 95
Cc1ccc(Sc2c(O)c3ccccc3oc2=O)cc1 | 95
Cc1cc(C)n(CCc2nc(-c3cccs3)cs2)n1 | 94
N#CCC(=O)NCCN1CCOCC1 | 102
COc1ccc(Cl)cc1C(=O)Nc1ccc2nc3n(c(=O)c2c1)CCCC3 | 87
CC1(C)Cc2cccc(C(=O)Nc3cccc4c3CCCC4)c2O1 | 101
OCc1cccnc1Sc1ccccc1 | 96
O=S(=O)(c1ccc(F)cc1)N1CCN=C1SCc1ccc(F)cc1 | 115
CC(=O)Nc1ccc2c(c1)sc(=NC(=O)c1ccco1)n2C | 89
COC(=O)CCN1C(=O)/C(=C\c2cccs2)SC1=S | 100
Cc1ccc(/C=C2/C=CC(=O)O2)o1 | 82*
Oc1cc(C2CCCCC2)cc(C2CCCCC2)c1 | 98
COC(=O)c1ccc2c(c1)C(=O)/C(=C\c1ccccc1O)O2 | 98
CC(C)NC(=O)n1ncc(S(=O)(=O)c2ccc(Cl)cc2)c1-c1ccc(Cl)cc1 | 95
CC(=O)N(c1nc(-c2cc3ccccc3oc2=O)cs1)c1cccc(C)c1C | 103
CCN(CC)c1ccc(-c2cc(C(=O)O)c3c(ccc4ccccc43)n2)cc1 | 100
O=C(CCCn1c(=O)c2cccn2c2ccccc21)N1CCc2ccccc21 | 112
CCOC(=O)Cn1c(=O)c(-c2nc(-c3ccccc3)cs2)cn(C(C)C)c1=O | 97
Cn1c(=O)oc2cc(S(=O)(=O)NCCCN3CCN(c4cccc(Cl)c4)CC3)ccc21 | 102
O=C(O)CCC(=O)Nc1nc2n(n1)C(c1ccccc1)CC(=O)N2 (stereo unspecified) | 101
N#CC1(c2ccccc2Cl)C(=O)Nc2ccccc21 (stereo unspecified) | 87
CCC(Sc1ccc2nnc(-c3ccccc3)n2n1)C(=O)OC (stereo unspecified) | 95
SMILES | VACV E9 pol inh
O=C(NCCCc1nc2ccccc2n1CCCOc1ccccc1)c1ccco1 | 103
Oc1ccc2c3c1OC1[C@@H](O)CC[C@@]4(O)[C@@H](C2)N(CC2CCC2)CC[C@]314 (stereo partly specified) | 99
O=C1C2C(c3ccccc3)C=CC(c3ccccc3)C2C(=O)N1c1cccc(Br)c1 (stereo unspecified) | 100
C=C(C)c1cccc(C(C)(C)NC(=O)Nc2ccccc2OC)c1 | 98
O=C(OCc1ccc2c(c1)OCO2)OCc1ccc2c(c1)OCO2 | 106
CCOC(=O)C(C)Sc1nnc(CNC(=O)C23CC4CC(CC(C4)C2)C3)n1-c1ccccc1 (stereo unspecified) | 97
CCCNC(=O)c1ccc2c(c1)N(Cc1ccccc1)C(=O)c1ccccc1S2 | 96
COc1ccc(CNCc2cccc(OC)c2)cc1 | 100
COc1ccc2c(c1)C(C)=CC(C)(C)N2 | 100
CCOC(=O)c1ccc(NC(=O)CSc2ncnc3ccccc23)cc1 | 89
O=c1c2ccccc2c(-c2ccccc2)nn1CCc1ccccn1 | 100
CCOc1ccc(NC(=O)c2cc3c(=O)n(C)c4ccccc4c3n2C)cc1 | 101
CSc1ccccc1NC(=O)CSc1ccccc1 | 105
CC(C)n1c(NCCO)nc2ccccc21 | 98
COc1ccc(C2C(C(=O)NCc3cccnc3)c3ccccc3C(=O)N2c2ccc(OC)cc2)cc1 (stereo unspecified) | 109
Oc1ccc(-c2nc3cc4ccccc4cc3nc2-c2ccccc2)cc1 | 100
Cc1cn(CCC(=O)Nc2ccc(N3CCOCC3)cc2)c2ccccc12 | 97
CCCC(=O)NCc1nc2ccccc2n1Cc1cc(C)ccc1C | 101
C=CCn1c(-c2ccc(OC)cc2)c(C)sc1=Nc1ccc(C)cc1 | 100
Cc1ccc2cc(CCNC(=O)/C=C\c3ccccc3)c(=O)[nH]c2c1 | 85
COc1ccc2nc(N(CCN(C)C)C(=O)c3cccs3)sc2c1 | 95
O=C(O)CSc1cccc2cccc(C(=O)O)c12 | 87
Cc1c(S(=O)(=O)Nc2ccc(Cl)cc2)sc2ccc(Cl)cc12 | 85
CN(C)C(=O)CS(=O)(=O)c1ccc(Cl)cc1 | 102
O=C(OCc1ccccc1)c1cc2cc(Br)cc(Br)c2oc1=O | 103

Reformatted as tab-separated lines: part of the list above
canonical_smiles	VACV E9 pol inh
O=C(COC(=O)CCc1c[nH]c2ccccc12)Nc1ccccc1Cl	100
CC(C)n1c(NCCO)nc2ccccc21	98

Further records.
SMILES | VACV E9 pol inh
Nc1ccc(Sc2ccc(N)cc2)cc1 | 98
CCN(CC)c1ncnc2sc3c(c12)CCC3 | 99
CC(=O)Nc1cc2c(s1)CCCC2 | 99
Oc1ccccc1C=Nc1ccc(Br)cc1 | 99
COc1ccc(-c2ccc(=O)n(CC(=O)N(C)c3ccccc3)n2)cc1 | 104
COc1ccccc1N1CCN(CCC(=O)Nc2ccc3c(c2)CCC3)CC1 | 100
O=C(CSc1cnc2ccccc2n1)NC1CCS(=O)(=O)C1 (stereo unspecified) | 107
O=C(O)CCc1nc2sc3c(c2c(=O)[nH]1)CCCC3 | 98
COc1cccc(/C=C2/Sc3ccc(C(=O)N4CC(C)CC(C)C4)cc3NC2=O)c1 (stereo unspecified) | 97
Fc1ccc(Cn2nnc3ccccc32)cc1 | 100
COc1cccc(C=Nc2ccccc2N2C(=O)c3ccccc3C2=O)c1O | 89
Cc1c(C=Nc2ccc(C(C)C)cc2)sc2ccccc12 | 98
CN(C(=O)CSC1=NCCS1)c1ccccc1 | 105
CCn1nnc(NC(=O)Cc2ccccc2)n1 | 100
O=C1c2ccccc2C(=O)N1Cc1ccncc1 | 101
Cc1cc(N(C)Cc2ccccc2)nc2cc(O)ccc12 | 77*
COc1cccc(-c2coc3cc4oc(=O)cc(C)c4cc23)c1 | 81
CNC(=O)c1cccc(NC(=S)NC)c1 | 100
c1cc[n+](C[n+]2ccccc2)cc1 | 103
CC(C)(C)Nc1ncnc2c1sc1nc3c(cc12)COC(C)(C)C3 | 100
CC1CN(C(=O)CS(=O)(=O)c2ccc(F)cc2)CC(C)O1 (stereo unspecified) | 95
CCCNC(=O)c1cc(C)c2c(C)nn(-c3ccccc3)c2n1 | 102
Cc1cn(C2CCC(CO)O2)c(=O)[nH]c1=O (stereo unspecified) | 100
CC1c2ccsc2CCN1C(=O)c1ccc(C(F)(F)F)cc1 (stereo unspecified) | 112
CCN(CC)c1ccc(C(=O)OCC(=O)N(C)Cc2ccccc2)cc1 | 96
SMILES | VACV E9 pol inh
Cc1cc(=O)cc(C(F)(F)F)o1 | 101
CC1Sc2cc(S(=O)(=O)N3CCc4ccccc4C3)ccc2NC1=O (stereo unspecified) | 99
CN(C1CCCCC1)S(=O)(=O)c1cc(Br)cc2c1N(C(=O)C1CC1)CC2 | 92
CCOC(=O)c1sc(C)nc1C(F)(F)F | 117
COC(=O)C1=C(C)NC(C)=C(C(=O)c2ccccc2)C1c1ccc(Br)cc1 (stereo unspecified) | 99
CCOC(=O)c1ccc(NC(=O)CCC(C)C(=O)O)cc1 (stereo unspecified) | 87
Cc1ccc(SCCC(=O)Nc2c(C)n(C)n(-c3ccccc3)c2=O)cc1 | 100
CN(C)c1nc(N)ncc1-c1ccccc1 | 102
C[C@]12CCC3C(CC[C@]4(O)C[C@@H](O)CC[C@]34C=O)[C@@]1(O)CCC2C1=CC(=O)OC1 (stereo partly specified) | 100
COC(=O)Cn1c(CCS(=O)(=O)c2ccc(Cl)cc2)nc2ccccc21 | 100
Cc1ccc(C2=NS(=O)(=O)N(C)C(C(=O)N3CCc4ccccc4C3)=C2)cc1 | 97
Cc1nnc(N2C(=N)S/C(=C\c3ccccc3Cl)C2=O)s1 | 100

Molecules from the list above with an aryl methoxy group (19):
SMILES | VACV E9 pol inh
CCOC(=O)Cn1c2c(c(-c3ccccc3OC)cc1=O)CCCC2 | 96
COc1ccc(C(=O)N2CC(C)OC(C)C2)cc1 (stereo unspecified) | 101
COc1cccc(C2C(C#N)=C(N)Oc3[nH]c(=O)[nH]c(=O)c32)c1 (stereo unspecified) | 83
CCN1CCN(CCCNC(=O)c2ccc3nc(/C=C(\O)c4ccc(OC)cc4)c(=O)[nH]c3c2)CC1 | 48*
COc1cc2c(cc1OC)C(c1ccccc1)N(C(=O)c1oc3ccccc3c1C)CC2 (stereo unspecified) | 80
COc1ccc(C(=O)NCCCc2nc3ccccc3n2C)cc1OC | 99
COc1ccccc1N1CCN(S(=O)(=O)c2ccc3c4c(cccc24)C(=O)N3)CC1 | 100
COc1ccc(Cl)cc1C(=O)Nc1ccc2nc3n(c(=O)c2c1)CCCC3 | 87
C=C(C)c1cccc(C(C)(C)NC(=O)Nc2ccccc2OC)c1 | 98
COc1ccc(CNCc2cccc(OC)c2)cc1 | 100
COc1ccc2c(c1)C(C)=CC(C)(C)N2 | 100
COc1ccc(C2C(C(=O)NCc3cccnc3)c3ccccc3C(=O)N2c2ccc(OC)cc2)cc1 (stereo unspecified) | 109
C=CCn1c(-c2ccc(OC)cc2)c(C)sc1=Nc1ccc(C)cc1 | 100
COc1ccc2nc(N(CCN(C)C)C(=O)c3cccs3)sc2c1 | 95
COc1ccc(-c2ccc(=O)n(CC(=O)N(C)c3ccccc3)n2)cc1 | 104
COc1ccccc1N1CCN(CCC(=O)Nc2ccc3c(c2)CCC3)CC1 | 100
COc1cccc(/C=C2/Sc3ccc(C(=O)N4CC(C)CC(C)C4)cc3NC2=O)c1 (stereo unspecified) | 97
COc1cccc(C=Nc2ccccc2N2C(=O)c3ccccc3C2=O)c1O | 89
COc1cccc(-c2coc3cc4oc(=O)cc(C)c4cc23)c1 | 81

From PubChem

The list is partial; rates above refer to the full screens.
